Assay outcomes as filed in PubChem.
TbPYK inhibitor = qHTS of Trypanosoma Brucei Inhibitors | TbPYK enzyme, Kinase-Glo Plus ATP luminescence, 45 min | 410,000 compounds, 0.12% hits | pyruvate kinase (Trypanosoma brucei), Q57TT1 | Potency, µM (titrated, usually from 76.8 µM), without a hit: top-dose activity, negative = inhibition, hits mostly inhibitors | AID 624173, 2012; further: nearly all actives have a fitted effect of over 50% in size
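Luminescence from Kinase-Glo Plus, added after a 45-minute room-temperature reaction, served as the end-point read-out. The enzyme and substrate were preincubated with compound before ADP (130 uM final) initiated turnover. Concentration-effect curves came from normalized qHTS data.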
Pf growth 96h = Primary qHTS for delayed death inhibitors of the malarial parasite plastid, 96 hour incubation; P. falciparum luciferase reporter growth, 96 h; AID 504834, 2011; 320,000 compounds, 6.9% hits; Potency, µM (doses to about 28.7 µM), for inactives: top-dose activity change, negative = inhibition, usual class: inhibitors
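Parasite growth measured via integrated firefly luciferase reporter in P. falciparum. Infected erythrocytes at 2% hematocrit, 0.05% parasitemia final were treated 96 hours at 37 C under 5% CO2, and luminescence was read.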
LmPK inhibitor = qHTS Assay for Inhibitors of Leishmania Mexicana Pyruvate Kinase (LmPK) | Q27686 | purified LmPK, Kinase-Glo ATP luminescence, 1 h | Potency, µM (titrated, usually from 57.5 µM), for the others: top-dose activity change, negative = inhibition, hits mostly inhibitors | 290,000 compounds, 0.37% hits
Target sequence (Q27686 whole entry, looked up): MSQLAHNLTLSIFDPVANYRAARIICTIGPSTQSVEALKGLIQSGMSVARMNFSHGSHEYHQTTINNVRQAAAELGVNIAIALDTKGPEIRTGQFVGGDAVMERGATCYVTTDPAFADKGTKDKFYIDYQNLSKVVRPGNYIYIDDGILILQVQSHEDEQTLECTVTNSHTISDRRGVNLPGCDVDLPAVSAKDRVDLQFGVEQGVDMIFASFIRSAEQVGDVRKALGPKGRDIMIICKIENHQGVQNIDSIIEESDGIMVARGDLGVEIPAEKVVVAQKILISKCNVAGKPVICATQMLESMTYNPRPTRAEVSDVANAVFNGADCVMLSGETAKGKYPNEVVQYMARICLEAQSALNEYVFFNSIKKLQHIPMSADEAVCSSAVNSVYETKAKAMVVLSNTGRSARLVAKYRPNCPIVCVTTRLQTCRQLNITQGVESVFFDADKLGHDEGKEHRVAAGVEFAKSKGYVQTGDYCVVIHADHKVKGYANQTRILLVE
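Kinase-Glo luminescence read after 1 h RT reaction of 0.1 nM LmPK with 0.5 mM PEP and 0.1 mM ADP. Activity scaled between uninhibited and enzyme-free controls.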
HCV inh = qHTS Assay for Inhibitors of Hepatitis C Virus (HCV) | Huh7.5.1 HCVcc-Cre infection, luciferase reporter, 44 h | 340,000 compounds, 3.4% hits | Potency, µM (highest dose often 41.8 µM), for inactives: at the top dose activity change, negative = inhibition, usual class: inhibitors
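Antiviral activity was scored by luciferase reporter output from cells infected with HCVcc-Cre (~0.5 moi) in presence of compound, 44 h infection period, cells seeded 1,000/well 4 h prior.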
Pf growth 48h = Primary qHTS for delayed death inhibitors of the malarial parasite plastid, 48 hour incubation; AID 504832, 2011; P. falciparum luciferase growth in erythrocytes, 48 h; Potency, µM (top dose mostly 28.7 µM), inactives show at the highest dose activity change, negative = inhibition, most hits filed as inhibitors; 310,000 compounds, 5.9% hits
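Growth was read as firefly luciferase luminescence after a 48 h, 37 C, 5% CO2 exposure of compounds to reporter-bearing P. falciparum cultures (0.1% parasitemia, 2% hematocrit final) in Albumax-supplemented RPMI 1640.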
* = called active by the depositor; u = inconclusive; x = not tested or not shown; & = joins results of further samples; ! = a repeat was not active; [ ] = dose if it differs, or a comment. The call rests on the fitted dose curve; in most records, active means well fitted curve in the direction sought with a large enough effect; inconclusive means small, poorly fitted or top-dose-only effect, or another doubt; inactive means no such curve, though single readings can be large; an effect the other way counts as inactive or inconclusive. On the % scale 0 is the no-effect control and ±100 the full control effect; potency means the concentration at half of the fitted maximal effect.

SMILES	TbPYK inhibitor	Pf growth 96h	LmPK inhibitor	HCV inh	Pf growth 48h
Cc1cnc(C(=O)NCCc2ccc(S(=O)(=O)NC(=O)NC3CCCCC3)cc2)cn1	-2%&-5%	6.7µM*!	5%	0%[8.37 µM]	-17%&-8%
CC(=O)NC1(NC(C)=O)CCN(C)C(c2ccccc2)C1C (centres undefined)	3%	u	3%	-6%	13%
CCN(c1ccccc1)S(=O)(=O)c1ccc(C(=O)NCC(c2cccs2)N(C)C)cc1 (centres undefined)	3%	u	3%	-6%	u
CCOC(=O)c1ccc(NC(=O)CCOc2ccc(OC)cc2)cc1	x	43%[activator]	6%	-19%	x
Cc1cc(C)n(CC(=O)N/N=C/c2cc(Br)cc([N+](=O)[O-])c2O)n1	-12%	29%	-1%	-1%	u
Cc1cc(C)n(C(=O)C(C)n2nc([N+](=O)[O-])c(Br)c2C)n1 (centres undefined)	4%	48%[activator]	1%	10%	16%
CCOC(=O)c1cnn(-c2ccccc2)c1NC(=O)C(F)(F)C(F)(F)C(F)(F)F	1%	6%	0%	9%	x
O=C(c1cccc([N+](=O)[O-])c1)C12CN3CN(CN(C3)C1)C2	-6%	57%[activator]	-8%	15%	u
CN(C(=S)SCc1ccccc1)C1CCS(=O)(=O)C1 (centres undefined)	0%	-47%[5.75 µM]	1%	-10%	-9%[5.75 µM]
CC(Sc1nc2ccccc2s1)C(=O)N1CCOCC1 (centres undefined)	-6%	18%	5%	-5%	19%
Cn1c(CCN2CCCCC2)nc2cc(NS(=O)(=O)c3ccccc3)ccc21	-25%	-1%[5.75 µM]	4%	-6%	-10%
COc1cccc(OCc2cc(C(=O)N(C)CCOc3ccc(C)cc3)no2)c1	-4%	u	3%	11µM*	-3%
O=C(c1cccnc1)N1CCN(Cc2cccc(F)c2)CC1	1%	4%	-4%	7%	x
NC(N)=Nc1nc(CSCC/C(N)=N/S(N)(=O)=O)cs1	1%&8%	4.3µM*!	1%	-15%[8.37 µM]	-1%&2%
CC(=O)Nc1nc(CCN2C(=O)c3ccccc3C2=O)cs1	2%	u	2%	3%	290%[activator]
C/C(=N/OC(=O)c1ccccc1)c1oc(C)nc1C	-11%	0%	u	-4%	-6%
COc1cc2[nH]c(C(=O)N3CC(C)OC(C)C3)cc2c(OC)c1OC (centres undefined)	2%	-2%	-1%	8%	0%
Cc1[nH]nc2c1C(c1ccccc1)C1=C(CC(C)(C)CC1=O)N2 (centres undefined)	-7%	x	13%	19%	u
O=C(Nc1ccccc1)c1ccccc1NS(=O)(=O)c1ccc(Cl)s1	2%	2%	2%	u	u
O=C(O)COCCN1CCN([C@@H](c2ccccc2)c2ccc(Cl)cc2)CC1	5%[33.2 µM]	4.1µM*	x	x	u
COc1ccccc1NS(=O)(=O)c1cc(NC(=O)CCNC(C)=O)ccc1C	4%	-22%	-3%	14%	-12%
CCOc1ccc(C2C(C(=O)c3ccc(C)o3)=C(O)C(=O)N2Cc2cccnc2)cc1 (centres undefined)	-8%	u	-9%	7%	-1%
Cc1nnc(SCC(=O)NCc2cccs2)[nH]c1=O	-4%	u	-16%	4%	7%
CC(C)(C)NC(=O)CON=C1c2ccccc2-c2ccccc21	3%	u	2%	u	-13%

3 structures from above, ordered by molecular weight, low to high:
SMILES	TbPYK inhibitor	Pf growth 96h	LmPK inhibitor	HCV inh	Pf growth 48h
CC(C)(C)NC(=O)CON=C1c2ccccc2-c2ccccc21	3%	u	2%	u	-13%
CC(=O)Nc1nc(CCN2C(=O)c3ccccc3C2=O)cs1	2%	u	2%	3%	290%[activator]
O=C(Nc1ccccc1)c1ccccc1NS(=O)(=O)c1ccc(Cl)s1	2%	2%	2%	u	u

Carrying on:
SMILES	TbPYK inhibitor	Pf growth 96h	LmPK inhibitor	HCV inh	Pf growth 48h
CN(CCO)CC(O)Cn1cnc2c1c(=O)n(C)c(=O)n2C (centres undefined) (tested in a mixture with another compound)	4%&-5%	u	0%	2%[8.37 µM]	u
CC1(C)S[C@@H]2[C@H](NC(=O)[C@H](N)c3ccc(O)cc3)C(=O)N2[C@H]1C(=O)O	-5%	20%	-2%	u	-1%
Cc1cccc(NC(=O)COC(=O)c2n[nH]c3ccccc23)c1C	3%	3%	x	u	34%[activator]
COc1ccccc1NS(=O)(=O)c1cc(C(=O)N2CC(C)CC(C)C2)ccc1C (centres undefined)	-12%	u	1%	-20%	x
COc1ccc2cc(CN(CCO)C(=O)c3ccc(Br)cc3)c(=O)[nH]c2c1	-6%	x	-10%	u	7%
Cc1ccc(C(=O)CCC(=O)Nc2cccc(C(F)(F)F)c2)cc1	8%	-17%	-1%	22%	22%
COc1ccc(Cl)cc1NC(=O)C[n+]1cccc(C)c1	-2%	18%	15%	5%	12µM*
O=C(Nc1cccnc1)c1cccc(F)c1	3%	-4%	0%	11%	-4%
C=C1c2c(Cl)ccc(O)c2C(O)=C2C(=O)[C@]3(O)C(O)=C(C(N)=O)C(=O)[C@@H](N(C)C)[C@@H]3[C@@H](O)C12 (some centres undefined)	-23%	0.74µM*	x	u	2.3µM*
COC(=O)c1ccc(N=C2S/C(=C\c3cc(C)n(-c4cccnc4)c3C)C(=O)N2C)cc1	-7%	u	2%	3.5µM*	u
COc1cccc(NC(=O)N(C2CCCCC2)C(C)c2cccs2)c1 (centres undefined)	1%	-3%	-4%	-20%	u
CC/C(=N\n1nnnc1Nc1ccccc1)c1ccccc1	-15%	-18%	7%	8%	10µM*
CCc1ccc(OCc2nnc(SCc3ccc(C(=O)O)cc3)o2)cc1	3%	u	-3%	0%	-5%
O=C(Cn1ncc2c1-c1ccccc1OC2)N1CCc2ccccc21	5%	11%	2%	-8%	-6%
Cc1ccnc(SCC(=O)Nc2sc3c(c2C#N)CCC(C(C)(C)C)C3)n1 (centres undefined)	5%	u	4%	-16%	x
CC12CCC(=O)C=C1CCC1C2CCC2(C)C(O)CCC12 (centres undefined)	-1%	49%[activator]	-2%	-11%	-18%
CCOC(=O)c1ccc(NC(=O)CSc2nc3c(c(=O)n2CC)SC(C)C3)cc1 (centres undefined)	3%	9.3µM*	1%	u	10µM*
O=C1OCC(c2ccccc2)=C1c1ccccc1	1%	-10%	1%	1%	-2%
CCCc1cc(C(=O)N2CCCC(C(=O)c3ccc(Cl)cc3)C2)n(C)n1 (centres undefined)	x	u	-2%	-11%	-2%
Cc1cc2n(c(=O)c1C#N)CCCN2c1ccccc1	4%	u	1%	-10%	-17%
CC1(C)N=C(SCC(=O)Nc2ccccc2)C(c2ccc(Cl)cc2)=N1	1%	u	6%	u	-20%
O=C(Cn1cnc2c(cnn2-c2ccccc2)c1=O)Nc1ccc(S(=O)(=O)N2CCOCC2)cc1	3%	-8%	5%	-19%	-11%
Cc1ccc(NC(=O)Cn2nc(C)c3ccccc3c2=O)cc1F	3%	-9%	0%	5%	-2%
Cc1ccc(NC(=O)C2CCC2)cc1S(=O)(=O)N1CCCCCC1	7%	u	x	-16%	-35%
COC(CNC(=O)c1ccc(N2CCCC2=O)cc1)OC	-2%	u	11%	5%	x
COc1ccc(C(=O)NCC(=O)N2CCCC(C(F)(F)F)C2)cc1OC (centres undefined)	-3%	u	x	21%	0%
CSC1=C(C#N)C(c2ccccc2Cl)C(C(C)=O)=C(C)N1 (centres undefined)	-2%	u	3%	9%	u
Cc1ccc(NCC(O)C(O)C(O)CO)c(N=Nc2ccccc2)c1C (centres undefined)	-4%	u	-14%	13%	-4%
O=C(Oc1ccccc1)c1c(Cl)cccc1P(=O)(O)O	-8%	63%[activator]	-7%	6%	27%
Cc1c(C(=O)NN2CCCCC2)nn(-c2ccc(Cl)cc2Cl)c1-c1ccc(I)cc1	x	x	-11%	x	x
CCc1ccc(Oc2coc3cc(OCC(=O)Nc4cc(C)ccc4C)ccc3c2=O)cc1	-1%	u	4%	u	5%
O=C(NCc1ccc(F)cc1)c1nnc(Cc2cccc(F)c2)o1	1%	x	x	x	x
O=C(O)c1ccc(Cl)c(S(=O)(=O)Nc2ccccc2N2CCOCC2)c1	0%	-10%	1%	7%	-1%
COc1ccc(C2CC(=O)c3cnc(NC(=O)c4cccc(OC)c4)nc3C2)cc1 (centres undefined)	0%	u	2%	u	u
O=C(CNC(=S)N(CCCN1CCOCC1)Cc1cccs1)NCc1ccccc1	-22%	59%[activator]	1%	3%	-6%
CC(C)C(=O)N1CCN(C2=NS(=O)(=O)c3ccccc32)CC1	-3%	2%	-1%	0%	9%

Random excerpt: 7 entries already listed.
SMILES	TbPYK inhibitor	Pf growth 96h	LmPK inhibitor	HCV inh	Pf growth 48h
CSC1=C(C#N)C(c2ccccc2Cl)C(C(C)=O)=C(C)N1 (centres undefined)	-2%	u	3%	9%	u
COC(CNC(=O)c1ccc(N2CCCC2=O)cc1)OC	-2%	u	11%	5%	x
O=C(O)c1ccc(Cl)c(S(=O)(=O)Nc2ccccc2N2CCOCC2)c1	0%	-10%	1%	7%	-1%
O=C(Oc1ccccc1)c1c(Cl)cccc1P(=O)(O)O	-8%	63%[activator]	-7%	6%	27%
CC(C)C(=O)N1CCN(C2=NS(=O)(=O)c3ccccc32)CC1	-3%	2%	-1%	0%	9%
COc1ccc(C(=O)NCC(=O)N2CCCC(C(F)(F)F)C2)cc1OC (centres undefined)	-3%	u	x	21%	0%
O=C(CNC(=S)N(CCCN1CCOCC1)Cc1cccs1)NCc1ccccc1	-22%	59%[activator]	1%	3%	-6%

(more compounds)
SMILES	TbPYK inhibitor	Pf growth 96h	LmPK inhibitor	HCV inh	Pf growth 48h
Cc1ccc(NC(=O)CN(C)C(=O)CNC(=O)c2cccs2)cc1	-14%	-13%	x	u	-16%
O=C(Nc1nc2ccccc2n1CCN1CCOCC1)c1ccc(Cn2cc([N+](=O)[O-])cn2)o1	-5%	u	-1%	-12%	u
CCOc1cc(C2C(C(=O)c3ccco3)=C(O)C(=O)N2CC2CCCO2)ccc1O (centres undefined)	1%	31%[activator]	6%	8%	9%
O=S(=O)(c1ccc(Cl)cc1)N1CC1c1ccccc1 (centres undefined)	-17%	103%[activator]	7%	24%	6%
COc1ccccc1NC(=O)CSc1nccc(=O)[nH]1	-4%	0%[5.75 µM]	0%	3%	9%
Cc1cccc(C(=O)NCCC(=O)Nc2ccc(C)c(F)c2)c1	-2%	-9%	-4%	3%	-18%
O=C(NCc1ccccc1Cl)c1ccccc1Oc1ccccc1	-5%	u	2%	-3%	-14%
CC(C)NC[C@@H](O)c1ccc(O)c(O)c1	-7%	-1%	0%	-2%[8.37 µM]	-15%
COCCN(C(=O)COC(=O)c1ccccc1Cc1ccccc1)c1c(N)n(Cc2ccccc2)c(=O)[nH]c1=O	1%	u	x	-20%	26%
O=C1OCCN1/N=C/c1ccc([N+](=O)[O-])o1	4%&-7%	3.8µM*	-2%	u	13µM*!
Cc1ccnc(NC(=O)CCC(=O)N(CC(=O)NC(C)(C)C)c2ccc3c(c2)OCO3)c1	-6%	u	8%	-2%	-8%
N=c1c2c(-c3ccccc3)c(-c3ccccc3)n(Cc3ccccc3)c2ncn1CCCO	4%	4.7µM*	6%	u	2.3µM*
CCCNC(=O)c1ccccc1NC(=O)COc1ccc(OC)cc1	-2%	38%[activator]	4%	-11%	x
CCC(C)C(NC(=O)OC(C)(C)C)C(=O)NCc1ccco1 (centres undefined)	-1%	u	1%	0%	x
CCc1nnc(NS(=O)(=O)c2ccc(NS(=O)(=O)c3ccccc3[N+](=O)[O-])cc2)s1	2%	8%	2%	6%	12%
CCN1CCN(C(=O)NCc2ccccc2)CC1	23%	24%	0%	-8%	12%
O=C(O)c1cccnc1Oc1ccccc1	0%	x	5%	10%	-15%
O=C(O)c1ccc2c(c1)CC(c1ccccc1)OC2=O (centres undefined)	4%	35%[activator]	4%	19%	6%
COc1ccc(CN2CCN(Cc3nc4ccccc4s3)CC2CCO)c(C)c1C (centres undefined)	-1%	-12%	-1%	6.3µM*	u

The list is partial; count on the stated rates, not on these rows.
